Screening results: PubChem BioAssay, NMMLSC
Bead autofluor – compound fluorescence in toxin protease inhibitor counterscreen; AID 624483; compound autofluorescence counterscreen, microsphere flow cytometry; hits give high values; 3.1% of 360,000 active; fluorescence intensity (test concentration not listed);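 active means at least 3 SD above the mean of all compounds, about 16000 in these data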;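 further: 100 nL of 1 mM stock went into each well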
Active calls of the source: *. An excerpt (hit frequency here may not be typical).

SMILES | Bead autofluor
COc1cccc(CN2CC(C(=O)N3CCSCC3)CCC2=O)c1 (stereo unspecified) | 3738
CC1(C(=O)NCC2CC2)CCN1C(=O)C1(c2ccc(Cl)cc2)CC1 (stereo unspecified) | 2810
COc1ccccc1-c1cnc(C(O)c2c(C)cccc2C)[nH]1 (stereo unspecified) | 3633
CCCCN1C(=O)C(CC(=O)NC2CCCCC2)CC(C(=O)N(C)C)=C1C (stereo unspecified) | 2990
Nc1ncnc2c1ccn2[C@H]1CN(Cc2ccc3c(c2)OCO3)C[C@@H](CO)O1 | 2925
CCOC(=O)C1(C)CCCN1C(=O)c1ccc(C)cc1 (stereo unspecified) | 4113
C[C@@H]1CN([C@@H](C)CO)C(=O)CCCn2nncc2CO[C@H]1CN(C)S(=O)(=O)c1ccc(-c2ccccc2)cc1 | 2854
CC1(C(=O)NS(=O)(=O)c2ccc(Cl)cc2)CCN1C(=O)C1CCCCC1 (stereo unspecified) | 3466
CCCS(=O)(=O)NC(=O)C1(C)CCCN(C(=O)c2c(C)noc2C)C1 (stereo unspecified) | 3967
O=C(/C=C/[C@H]1O[C@@H](n2ccc(=O)[nH]c2=O)[C@H](O)[C@@H]1O)NCc1ccc2c(c1)OCO2 | 5764
Cc1ccc(NCN2C(=O)c3ccccc3C2=O)cc1Cl | 3351
COc1cc(C)ccc1S(=O)(=O)NC(=O)C1(C)CCN1C(=O)COc1ccc(Cl)cc1 (stereo unspecified) | 2683
O=C(C[C@H]1C[C@H]2c3cc(NC(=O)CC4CC4)ccc3O[C@H]2[C@H](CO)O1)NCc1ccccc1F | 3848
CCOC(=O)CN1CCC(C2(c3cc4ccccc4[nH]3)OCCO2)CC1 | 3941
CN(C)c1ccc(-c2ccnc3c2CC(C)(C(=O)Nc2ccc(Cl)cc2)O3)cc1 (stereo unspecified) | 3571
CCc1nc2ccc(C(=O)Nc3cc(-c4ccccc4)ccc3OC)cn2c1N(CCN(C)C)CC1CC1 | 3570
C[C@@H]1CN([C@H](C)CO)S(=O)(=O)c2ccc(C#Cc3cccc(F)c3)cc2O[C@@H]1CN(C)C(=O)CN1CCOCC1 | 3407
CC(O)(c1cccnc1)c1nc(-c2ccc3c(c2)OCO3)cs1 (stereo unspecified) | 3747
CCOC(=O)[C@]12CCC=C1N(Cc1ccco1)C(=O)[C@H](CC(=O)NCCCOC)C2 | 5349
COc1ccc(-c2oc3c(c2C#CC2(O)CCCCC2)C(OC(C)=O)CCC3)cc1 (stereo unspecified) | 6244
COc1ccc2oc3cc(NCCN(C)C)ccc3c(=O)c2c1 | 4448
CC1(C(=O)Nc2ccc3[nH]ncc3c2)CCN1C(=O)CCc1ccccc1 (stereo unspecified) | 3374
CCOc1ccc(Cl)cc1-c1cc(C(=O)Nc2ccc(OC)nc2)[nH]n1 | 3865
COc1ccc(CNC(=O)C2(C)Cc3c(-c4cccc(NC(C)=O)c4)ccnc3O2)cc1OC (stereo unspecified) | 3836
Clc1ccc2c(-c3ccccc3)nc(-c3cccs3)nc2c1 | 5646
CNc1cccc(-c2cccc(O)c2)n1 | 3522
O=C(NC(CC(=O)N1CCN(c2ccccc2)CC1)c1ccccc1)c1ccccc1 (stereo unspecified) | 3629
O=C1NC[C@H](Cc2ccc(O)cc2)N(C[C@@H]2CCCN2C[C@H](Cc2ccccc2)N2C[C@H](Cc3ccccc3)N(CC3CCCCCC3)C(=O)C2=O)C1=O | 5940
Cc1cn([C@H]2C[C@H](O)[C@@H](/C=C/C(=O)NCc3ccc4c(c3)OCO4)O2)c(=O)[nH]c1=O | 6605
NS(=O)(=O)c1ccc(CCNC(=O)COC(=O)Cc2ccc(Cl)cc2)cc1 | 3750
COc1ccc(OC)c(NC(=O)c2cccc(NC(=O)c3ccco3)c2)c1 | 3549
CCCCNC(=O)C1(C)CCN1C(=O)c1c(F)ccc(C)c1F (stereo unspecified) | 4191
OC1c2c(F)cccc2N=C2CCCCN21 (stereo unspecified) | 3851
O=C(c1[nH]c(C(F)(F)F)nc1-c1ccccc1)N1CCc2ccccc2C1 | 5132
CCOc1ccc(Cc2c(O)nc(SC)[nH]c2=O)cc1 | 3246
CCOC(=O)c1[nH]c(=S)n(-c2ccccc2)c1C(=O)OCC | 2768
COc1ccc(CNC(=O)Nc2nc(C(N)c3ccccc3)cs2)cc1 (stereo unspecified) | 3717
Cc1cc2nc(-c3ccc(F)cc3)c(CC3CCCCC3)n2c(C)c1Br | 6005
O=C(NCc1ccncc1)Nc1ccc(Cc2ccc(NC(=O)NCc3ccncc3)cc2)cc1 | 3826
COc1ccc(C(C)(C)C)cc1NC(=O)CN(C)C1=NS(=O)(=O)c2ccccc21 | 3013

Not a retest: 13 of the compounds above.
SMILES | Bead autofluor
O=C1NC[C@H](Cc2ccc(O)cc2)N(C[C@@H]2CCCN2C[C@H](Cc2ccccc2)N2C[C@H](Cc3ccccc3)N(CC3CCCCCC3)C(=O)C2=O)C1=O | 5940
Cc1cn([C@H]2C[C@H](O)[C@@H](/C=C/C(=O)NCc3ccc4c(c3)OCO4)O2)c(=O)[nH]c1=O | 6605
NS(=O)(=O)c1ccc(CCNC(=O)COC(=O)Cc2ccc(Cl)cc2)cc1 | 3750
COc1ccc(OC)c(NC(=O)c2cccc(NC(=O)c3ccco3)c2)c1 | 3549
CCCCNC(=O)C1(C)CCN1C(=O)c1c(F)ccc(C)c1F (stereo unspecified) | 4191
OC1c2c(F)cccc2N=C2CCCCN21 (stereo unspecified) | 3851
O=C(c1[nH]c(C(F)(F)F)nc1-c1ccccc1)N1CCc2ccccc2C1 | 5132
CCOc1ccc(Cc2c(O)nc(SC)[nH]c2=O)cc1 | 3246
CCOC(=O)c1[nH]c(=S)n(-c2ccccc2)c1C(=O)OCC | 2768
COc1ccc(CNC(=O)Nc2nc(C(N)c3ccccc3)cs2)cc1 (stereo unspecified) | 3717
Cc1cc2nc(-c3ccc(F)cc3)c(CC3CCCCC3)n2c(C)c1Br | 6005
O=C(NCc1ccncc1)Nc1ccc(Cc2ccc(NC(=O)NCc3ccncc3)cc2)cc1 | 3826
COc1ccc(C(C)(C)C)cc1NC(=O)CN(C)C1=NS(=O)(=O)c2ccccc21 | 3013

Next part:
SMILES | Bead autofluor
Cc1ccc(S(=O)(=O)NCc2ccccc2)cc1C(=O)NCc1ccncc1 | 3033
COc1ccc(CC(N)c2csc(Nc3cc(NCc4ccco4)ncn3)n2)cc1 (stereo unspecified) | 4014
CSc1nc(=O)[nH]nc1Sc1ccccc1 | 3754
Cn1c(=O)c2c(ncn2CC(=O)OCC(=O)c2ccc(Br)cc2)n(C)c1=O | 3958
CN(C)c1ccc(-c2[nH][nH]c(=O)c2NC(=O)c2ccc3ccccc3n2)cc1 | 5313
COC(=O)Cn1nnnc1-c1nc2cc(C)c(C)cc2[nH]c1=O | 6253
Cc1cc(C(=O)COC(=O)Cc2c(F)cccc2Cl)c(C)n1C | 3785
Cn1c(=O)c2c(ncn2CCOC(=O)C(C)(C)Oc2ccc(Cl)cc2)n(C)c1=O | 4517
CCCCc1ccc(S(=O)(=O)NC(=O)C2(C)CCN2C(=O)c2c(C)noc2C)cc1 (stereo unspecified) | 2864
COc1ccc(Br)c(Cn2c(C)c(C(=O)NCc3cccs3)sc2=O)c1 | 5137
Cc1cccc(C)c1NC(=O)CN(c1c(C)cccc1C)S(C)(=O)=O | 3968
COc1ccccc1-c1cccc(-c2nc(C(=O)N3CCCCC3)cc3c2[C@@H](CCO)N(S(=O)C(C)(C)C)C3)c1 (stereo partly specified) | 5341
COCCNC(=O)C1(C)CCCN(C(=O)c2cc(F)cc(F)c2)C1 (stereo unspecified) | 3762
CCC(=O)N1CCC1(C)C(=O)Nc1ccc(C)c(C)c1 (stereo unspecified) | 3827
Cc1ccccc1CN1C[C@H]2CON(C)[C@H]2C[C@H]1c1cccc(Br)c1 | 3694
Cc1c(NC(=O)CSc2nnc(-c3ccncc3)n2C)c(=O)n(-c2ccccc2)n1C | 4269
Cc1ccc(Cc2c(C(C)(C)C)nc3ccc(Br)cn23)cc1 | 6179
CC(=O)N(CC#CCN(C(C)=O)c1ccccc1)c1ccccc1 | 2997
C[C@@H]1CCCCO[C@H](CN(C)Cc2ccc(C(=O)O)cc2)[C@@H](C)CN([C@H](C)CO)C(=O)c2cc(NC(=O)CCC(F)(F)F)ccc2O1 | 3872
O=C(Nc1ccccc1F)c1csc([C@@H]2C[C@H](O)[C@@H](CO)O2)n1 | 3074
CCC/C=C/c1ccc(CN2C(C)C(=O)N(Cc3cn(Cc4ccco4)nn3)CCS2(=O)=O)cc1 (stereo unspecified) | 2832
CC(C)[C@H](NC(=O)c1c(F)cccc1F)C(=O)OCC(=O)NNC(=O)c1ccccc1 | 3748
CCCN(CCC)Cc1cc(=O)oc2cc(C)cc(C)c12 | 5321
C[C@H]1CN([C@@H](C)CO)C(=O)CCCn2nncc2CO[C@@H]1CN(C)Cc1cccc(C(=O)O)c1 | 5733
CCC(C)C(=O)C(=O)N1CCC(n2nccc2NC(=O)CCOc2ccccc2)CC1 (stereo unspecified) | 3829
O=C1C2CCN(CC2)C1(CO)CO | 3737
CC1(Cc2ccccc2Cl)C(=O)Nc2c(Cl)ccc(Cl)c21 (stereo unspecified) | 3737
Cc1ccccc1-c1cnc(C(O)c2cccc(C)c2C)[nH]1 (stereo unspecified) | 3955
COc1ccc(NC(=S)Nc2ccc3c(c2)c(=O)n(C)n3-c2ccccc2)cc1 | 4070
C[C@H]1CN([C@@H](C)CO)S(=O)(=O)c2ccc(Br)cc2O[C@@H]1CN(C)Cc1cccc(F)c1 | 3518
O=C(NCc1cc(Cl)cc(Cl)c1)c1csc([C@@H]2C[C@H](O)[C@@H](CO)O2)n1 | 2788
N#Cc1cccc(NC(=O)c2cc(C3CCCCN3C(=O)C3CC3)on2)c1 (stereo unspecified) | 2904
OC[C@@H]1CN(Cc2ccc(Cl)cc2)C[C@H](n2cnc3c(Nc4ccccc4)ncnc32)O1 | 3771
COc1ccc(/C=C/C(=O)OCC(=O)N2c3ccccc3CC2C)cc1OC (stereo unspecified) | 3371
OC[C@@H]1CN(Cc2ccccc2)C[C@H](n2cnc3c(NC4CCCC4)ncnc32)O1 | 2874
CCCCC(=O)N(C)c1c(CC)nc2c(OCC(N)=O)cccn12 | 4259
O=c1cc(CN2CCN(c3ccc(Cl)c(Cl)c3)CC2)c2ccccc2o1 | 5716
CC(=O)c1ccc(OCc2cn(CC(=O)c3ccc(O)cc3)nn2)c(C)c1 | 4517
CC(=O)Nc1ccc(NC(=O)C2(C)Cc3c(-c4cccc(C(F)(F)F)c4)ccnc3O2)cc1 (stereo unspecified) | 3735
Cc1cc(C)n(CCNC(=O)[C@H]2O[C@@H](n3cnc4c(N)ncnc43)[C@H](O)[C@@H]2O)n1 | 6008
COCCCNC(=O)c1cccc2c(-c3ccc(OC)cc3C)coc12 | 3703
C[C@H](CO)N1C[C@H](C)[C@@H](CN(C)C(=O)c2ccccc2)Oc2cc(C#C[C@@H](C)O)ccc2S1(=O)=O | 3402
O=[N+]([O-])c1cccc(COc2ccccc2CO)c1 | 5393
COc1cc(-c2c(C(=O)c3ccccc3)[nH]c(N)c2C(N)=O)ccc1F | 4402
CC(C)c1ccc([C@@H]2O[C@H](CCc3ccccc3)CC3=C2C(=O)OC(C)(C)O3)cc1 | 5985
C[C@@H]1CCCCO[C@H](CN(C)C(=O)c2ccccc2)[C@@H](C)CN([C@H](C)CO)C(=O)c2cc(NC(=O)NC3CCCCC3)ccc2O1 | 2928
COc1ccccc1CN(C)C(=O)c1cc(S(=O)(=O)N2CCCCCC2)ccc1OC | 3783
O=C(NCCN1CCC(n2c(=O)[nH]c3ccccc32)CC1)N1c2ccccc2Sc2ccccc21 | 5711
CC(=O)c1cccc(-c2ccnc3c2CC(C(=O)NCc2ccco2)O3)c1 (stereo unspecified) | 3812
O=C(NC(c1ccc(F)cc1)c1ccc2ccccc2n1)C1CCN(Cc2ccc3ccccc3n2)CC1 (stereo unspecified) | 3106
Cc1ccc(CN2CC(N3CCN(c4ccccn4)CC3)CS2(=O)=O)cc1 (stereo unspecified) | 5702
CCSc1ccc(-c2cc(NC=O)c3ncc(-c4cccc(C(=O)N(C)C)c4)n3c2)cc1 | 2962
S=C(NCCc1ccccc1)N1CCC2CC1c1c(Cl)cccc12 (stereo unspecified) | 3929
O=C(NCc1ccccc1)c1cc(C2CCCN(C(=O)CCc3ccccc3)C2)on1 (stereo unspecified) | 4025
COc1ccc(CC(=O)Nc2nc(OCCN3CCCC3=O)cnc2-c2cccc(C(F)(F)F)c2)cc1 | 3805
CC(=O)Nc1ccc(OCC(=O)Nc2ccc(Cl)c(S(=O)(=O)N3CCOCC3)c2)cc1 | 3687
CN(Cc1ccccc1)c1nccn2ccnc12 | 2892
CNC(=O)C[C@H]1C(=O)N(c2ccccc2)C[C@@H]1Cc1ccccc1 | 2846
COc1ccc(CNC(=O)O[C@H]2C[C@@H]3C(=O)N(c4ccccc4)C(=O)[C@@H]3[C@@H]3CN(S(=O)(=O)c4ccc(C)cc4)C[C@]23O)cc1OC | 4374
COc1ccc(Cc2c(-c3ccc(OC)c(OC)c3)nc3ccc(C)cn23)c(C)c1 | 6130
(next part)
SMILES | Bead autofluor
COc1cc(NC(=O)C2(C)CCCN(C(C)C)C2)cc(OC)c1OC (stereo unspecified) | 4007
O=C(NC1CCCc2c1cnn2-c1ccccc1F)c1ccncc1 (stereo unspecified) | 3675
CCOC(=O)CC1c2ccccc2-n2nncc2CN1CC1CCCCC1 (stereo unspecified) | 3461
Cc1ccc(-c2nc3cc(C)c(Br)c(C)n3c2CC(C)(C)C)cc1 | 5393
O=C(NC(Cc1c[nH]c2ccccc12)C(=O)O)c1cccc(S(=O)(=O)N2CCCCC2)c1 (stereo unspecified) | 2979
CC(C)NC(=O)N(C)C[C@H]1OCc2cnnn2CCCC(=O)N([C@H](C)CO)C[C@H]1C | 3003
CCOc1ccccc1N(CC(=O)NCCc1ccc(OC)cc1)S(=O)(=O)c1ccc(C)cc1 | 3904
COc1ccc(C(O)c2ncc(-c3ccccc3Cl)[nH]2)cc1F (stereo unspecified) | 3048
